gsp antagonist – antagonists of gsp mutant (McCune-Albright syndrome) | gsp-mutant cells, cAMP HTRF, 30 min; control for the full effect not named in the record | Potency, µM (titrated, usually from 76.9 µM), inactives show top-dose activity change, negative = inhibition, hits mostly inhibitors | 0.4% of 340,000 active | AID 624288; active = falling curve of any shape with a large fitted effect; inconclusive = falling curve, mostly with a smaller effect; inactive = flat or rising curve; cell line not stated here;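 further: intracellular cAMP measured with PDE inhibitor Ro 20-1724 present during compound exposure; potency means the concentration at half of the fitted maximal effect; on the % scale 0 is the no-effect control and ±100 the full control effect; nearly all actives have a fitted effect of over 65% in size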
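Measurement of cellular cAMP by homogeneous time-resolved fluorescence following a 30 min compound exposure at 37C. The PDE inhibitor […] was present throughout; the assay buffer was DPBS with 0.05% BSA and 0.005% Tween 20.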
D2 ag – human D2 receptor agonism in beta-arrestin assay; P14416; DiscoveRx PathHunter D2 beta-arrestin, luminescence, 90 min; 100% = 57 uM dopamine signal; activation, % (concentration not given with the values); 0.084% of 360,000 active; AID 624465; in the data active = activation above about 40%; inconclusive = about 15% to 40%; inactive = below about 15%; further: compound concentration not given in the record; the text of the record calls up to 30% inactive
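Agonist mode: compounds alone added to overnight-plated D2 PathHunter cells for 90 min at 37 C, with 57 uM final dopamine (EC100) defining full response. Beta-arrestin recruitment detected by chemiluminescent reagent, read after 1 h at ambient temperature.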
gsp agonist – gsp mutant agonism | gsp mutant cells, cAMP HTRF, 30 min; control for the full effect not named in the record | Potency, µM (series often up to 76.9 µM), for inactives: at the highest dose activation (cAMP increase), actives largely listed as activators | 0.13% of 340,000 active; active = well fitted activation curve with a large enough effect; inconclusive = small, poorly fitted or top-dose-only effect, or another doubt; inactive = no such curve, though single readings can be large or run the other way; cell line not stated here;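 further: phosphodiesterase inhibitor Ro 20-1724 added with compounds to block cAMP breakdown; potency means the concentration at half of the fitted maximal effect; nearly all actives have a fitted effect of over 60% in size; about a fifth of the inactives were tested at one dose only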
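Cells stably selected in G418 were plated at 2000/well, grown 16-24 hr, then given compounds in DMSO with the PDE inhibitor […] (300 uM solution added) for 30 min at 37C; cAMP was read by HTRF.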
Six1-Eya2 inh – inhibitors of human Six1/Eya2 interaction; 0.56% of 360,000 active; activity change, % (concentration not given with the values); AlphaScreen GST-Six1/His-Eya2 binding, biochemical; active compounds read low; control for the full effect not named in the record; Q15475+O00167; in the data active = activity change below about -65%; inconclusive = about -30% to -65%; inactive = above about -30%; further: on the % scale 0 is the no-effect control and ±100 the full control effect
Target sequence (O00167 whole entry, looked up): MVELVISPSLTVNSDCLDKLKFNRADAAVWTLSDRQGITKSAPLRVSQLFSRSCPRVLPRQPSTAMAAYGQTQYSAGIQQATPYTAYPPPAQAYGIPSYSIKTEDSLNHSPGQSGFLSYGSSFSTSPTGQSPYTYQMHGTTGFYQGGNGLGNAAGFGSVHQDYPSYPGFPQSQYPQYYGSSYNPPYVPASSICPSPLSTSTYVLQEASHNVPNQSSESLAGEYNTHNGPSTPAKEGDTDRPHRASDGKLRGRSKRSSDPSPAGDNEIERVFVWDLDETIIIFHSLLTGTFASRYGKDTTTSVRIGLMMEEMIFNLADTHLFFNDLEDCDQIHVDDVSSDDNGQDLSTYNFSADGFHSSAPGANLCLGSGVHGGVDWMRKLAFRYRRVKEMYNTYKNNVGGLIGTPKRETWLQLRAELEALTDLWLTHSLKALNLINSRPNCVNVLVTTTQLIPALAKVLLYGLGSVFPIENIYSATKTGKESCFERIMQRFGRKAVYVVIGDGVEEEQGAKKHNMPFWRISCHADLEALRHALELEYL
Target sequence (Q15475 whole entry, looked up): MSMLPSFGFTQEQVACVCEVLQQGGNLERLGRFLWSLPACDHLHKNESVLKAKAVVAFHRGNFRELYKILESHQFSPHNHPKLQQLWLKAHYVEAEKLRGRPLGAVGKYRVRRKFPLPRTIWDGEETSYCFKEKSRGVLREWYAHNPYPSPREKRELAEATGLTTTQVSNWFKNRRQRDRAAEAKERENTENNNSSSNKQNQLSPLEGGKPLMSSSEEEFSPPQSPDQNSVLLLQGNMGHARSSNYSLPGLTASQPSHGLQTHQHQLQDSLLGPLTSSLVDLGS
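Homogeneous AlphaScreen proximity assay pairing GST-Six1 with His-tagged Eya2 (added as 5X mix: 250 nM and 500 nM) in 50 mM Tris pH 8.0, 300 mM NaCl, 1 mM TCEP. Glutathione donor and nickel acceptor beads; 1 h, 37 °C, dark.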
D2 PAM – potentiates the human D2 dopamine receptor allosterically | 0.23% of 360,000 active | AID 624464 | potentiation, % (no concentration beside the values) | DiscoveRx D2 beta-arrestin cells, luminescence, 90 min; 100% = 57 uM dopamine signal | P14416; active = potentiation of 50% or more; inconclusive = 30% to 50%; inactive = 30% or less;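 further: compound concentration not given in the record; tested on top of an EC20 dose of dopamine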
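D2 cells co-treated with compound plus 50 nM dopamine (EC20) for 90 min at 37 deg C to detect potentiation. Beta-arrestin recruitment was read as enzyme-fragment luminescence after 1 h at ambient temperature. Full response was set by 57 uM dopamine.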
CtBP-E1A blk – CtBP/E1A binding inhibition; 0.49% of 340,000 active; AlphaScreen GST-E1A/His-CtBP binding, 1536-well; active compounds read low; control for the full effect not named in the record; activity change, % (no concentration beside the values); in the data active means activity change below about -65%; inconclusive means about -30% to -65%; inactive means above about -30%; further: on the % scale 0 is the no-effect control and ±100 the full control effect
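In 5 uL wells, 23 nL compound meets equimolar GST-E1A and His-CtBP (5X stock 125 nM each) for 2 h, 37 °C. Beads (5X, 50 ug/mL) then 1 h, 37 °C, dark.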
Numbers without * were called inactive; ? = inconclusive; nt = not tested or not shown; [ ] = another dose, or the depositor's remark.

SMILES	gsp antagonist	D2 ag	gsp agonist	Six1-Eya2 inh	D2 PAM	CtBP-E1A blk
CCN1CCN(Cc2ccc(NC(=O)c3ccc(C)c(NC(=O)c4ccc5n[nH]nc5c4)c3)cc2C(F)(F)F)CC1	-7%	-5.7	nt	3	-56	0
CCOC(=O)NC(=O)CSc1nc2ccc(C)cc2[nH]1	-6%	1.7	16%	8	1	4
CC1CC(=O)Nc2ccccc2N1C(=O)COc1ccccc1C(N)=O (stereo not drawn)	nt	4.0	14%	2	-7	7
CC(=O)OC[C@@H]1CN(Cc2ccccc2)C[C@H](n2cnc3c(N(C)C(C)C)ncnc32)O1	nt	-3.4	nt	-6	-10	-1
CN(Cc1nc2ccccc2c(=O)[nH]1)C(=O)c1cc2c(s1)CCCCC2	11%	-2.9	0%	-2	-7	1
C[C@]12c3[nH]c4ccccc4c3CCN1C(=O)C(CC(=O)NCC13CC4CC(CC(C4)C1)C3)C[C@@H]2C(=O)N1CCCCC1 (stereo partly drawn)	-22%	-2.1	nt	-15	nt	-22
Cc1cccc(Nc2nnc(C)c(=O)n2N)c1	10%	-2.1	-38%[inhibitor]	-1	0	0
ClC(=C\c1ccccc1)/C=N/N1CCN(c2ccccn2)CC1	-6%	-2.7	-20%	-8	7	4
CC(C)OC(=O)CSc1nnc(SCc2cccc3ccccc23)s1	-21%	-2.5	23%	44	-9	55
CCOc1ccc2[nH]c(=O)c(CN(CC3CCCN3CC)C(=O)NCc3ccccc3)cc2c1 (stereo not drawn)	0%	-1.7	14%	-2	-10	-6
Fc1cccc(Cl)c1/C=C/c1cnc2ccccc2n1	8%	-1.1	4%[15.4 µM]	3	-5	11
Cc1cc(C)c(C#N)c(Nc2cccc(Br)c2)n1	-25%	-7.7	9%[15.4 µM]	-12	-32	-1
COc1cc2cc(CCOC(=O)c3ccc(C(F)(F)F)cc3)oc(=O)c2cc1OC	3%	0.1	14%	-4	-5	nt
CS(=O)(=O)N(Cc1ccc(F)cc1)Cc1nc2ccccc2c(=O)[nH]1	11%	-1.4	-41%[inhibitor]	0	3	3
Cc1cc(NC(=O)C(C)SCC(=O)OC(C)C(=O)Nc2cccc(C#N)c2)no1 (stereo not drawn)	4%	-5.2	-23%	8	-18	12
Fc1ccc(C(c2nnnn2CCc2ccccc2)N2CCCc3ccccc32)cc1 (stereo not drawn)	2%	-3.2	-3%	-20	-15	-16
COc1ccc(C(=O)NC(=S)Nc2ccccc2F)cc1	-1%	-2.8	10%	7	-10	6
O=C(CCC(=O)N(CC(=O)NC1CCCC1)Cc1ccc(F)cc1)Nc1nccs1	13%	2.4	-2%[15.4 µM]	-5	-3	-2
CN(C(=O)COC(=O)c1ccc2ccccc2n1)c1ccccc1	-2%	-0.1	-13%[15.4 µM]	2	-24	7
Cc1ccc(SCC2CNc3nc4ccccc4c(=O)n32)c(C)c1 (stereo not drawn)	-8%	-1.5	-6%	-3	-10	7
COc1cc(NC(=O)Nc2nnc([C@@H]3C[C@H](O)[C@@H](CO)O3)s2)cc(OC)c1OC	nt	-5.0	nt	1	-3	-2
O=C(CSc1nc2[nH]ncc2c(=O)n1-c1ccccc1Cl)N1CCCC1	3%	-6.3	0%	1	-2	3
Cc1nn(C)c(C(=O)Sc2cccc(Cl)c2)c1[N+](=O)[O-]	8%	-11	12%	-7	-9	9
COc1ccc(-c2onc(C)c2-c2ccccc2)c(O)c1	-29%	1.9	9%	6	9	-2
COc1ccccc1N(CC(=O)N1CCCCCC1)S(=O)(=O)c1ccc(C)cc1	-36%	-3.8	11%[15.4 µM]	13	-1	-1
CCn1c2ccccc2c2cc(/C=N/NC(=O)c3cc(O)cc(O)c3)ccc21	?	-2.8	-3%[15.4 µM]	-19	-4	-18
COc1ccccc1NS(=O)(=O)c1cccc(C(=O)N/N=C/c2ccc([N+](=O)[O-])o2)c1	-15%	9.9	-43%[inhibitor]	-22	-6	6
Cc1nc2cc(-c3ccccc3)nn2c(C)c1CCC(=O)NCc1ccco1	-13%	3.3	-12%	-15	0	-3
Cc1ccc(NC(=O)CCNC(=O)c2ccccc2Cl)cc1S(=O)(=O)N(C)C	12%	-0.5	-11%	-6	0	-3
CCOc1cc(/C=N/N2CCOCC2)ccc1OCc1ccc(C(=O)OC)o1	7%	-3.4	3%[15.4 µM]	0	-2	-10
O=C(NCCN1CCOCC1)c1cc(-c2cccs2)nc2ccccc12	-4%	7.5	5%	1	-19	3
CC(C)(C)N(Cc1nc(-c2ccccc2)no1)C(=O)c1ccc2c(c1)OCO2	-11%	-2.9	1%[15.4 µM]	5	-4	1
Cn1c(C(=O)c2ccccc2)nc2ccccc21	-3%	-7.1	10%	10	-6	2
O=C(CCNC(=O)c1ccccc1Cl)Nc1nc(-c2ccc(F)cc2)cs1	-7%	-0.2	-50%[inhibitor]	1	-2	-3
COc1ccc(/C=N/N=C(\N)c2nonc2N)cc1OC	nt	-2.1	-1%[15.4 µM]	0	-20	-16
CCOC(=O)C1=C(N)N(c2ccccc2)C2=C(C(=O)CCC2)C1c1cccnc1 (stereo not drawn)	-6%	2.5	27%	-2	-7	8
Cc1ccc(OCC(=O)N2CCCCCCC2)cc1C	-15%	-3.7	-26%	-2	-11	0
O=C(NNS(=O)(=O)c1ccc(Br)cc1)c1sccc1-n1cccc1	-1%	4.1	5%[15.4 µM]	3	-8	nt
N#Cc1ccccc1CSc1nc(N2CCCCC2)nc(N2CCCCC2)n1	-4%	-0.1	-21%	2	-8	1
COC(=O)c1ccc(COc2ccc(C(=O)c3ccccc3)cc2)o1	3%	4.1	5%	7	20	13
CCC(=O)N1CCN(c2ccc(Cl)cc2NC(=O)c2cccc([N+](=O)[O-])c2)CC1	-6%	-2.4	?	4	-1	3
Cc1ccccc1S(=O)Cc1ccc(C(=O)NCCN2CCOCC2)o1 (stereo not drawn)	13%	-3.7	13%	0	-5	5
O=C(Nc1ccc(Cl)cn1)c1cccc(S(=O)(=O)N2CCOCC2)c1	-3%	-2.2	5%	-10	-2	-3
CCOc1ccc(C(=O)c2cc([N+](=O)[O-])ccc2Cl)cc1	-2%	-0.1	2%	0	29	-20
CCN(CC)C(=O)c1ccc(NS(=O)(=O)c2ccc(/C=C/C(=O)O)cc2)cc1	11%	0.0	-4%[15.4 µM]	6	1	5
CC(C)(C)c1ccc(OCCNC(=O)c2ncn[nH]2)cc1	3%	0.2	0%	-67*	-1	-66*
CC(=O)c1cc(C)ccc1OC(=O)CCN1C(=O)C2C3c4ccccc4C(c4ccccc43)C2C1=O (stereo not drawn)	1%	-3.0	19%	5	-5	6
N#Cc1nc(Cc2cccc3ccccc23)oc1N1CCCCC1	-6%	-3.6	?	?	-17	?
O=C(Nc1nonc1NC(=O)C1CCCCC1)C1CCCCC1	-2%	-2.3	2%	3	0	6
Cc1ccc(C(C(=O)NC2CCCCC2)N2CCOCC2)cc1 (stereo not drawn)	-4%	-4.7	-26%	-2	-15	2
Next section
SMILES	gsp antagonist	D2 ag	gsp agonist	Six1-Eya2 inh	D2 PAM	CtBP-E1A blk
Cc1cc(C)c(C#N)c(N2CCN(C(=O)C3COc4ccccc4O3)CC2)n1 (stereo not drawn)	-17%	-3.3	2%	-3	-18	4
COCCN1C[C@@H](CO)O[C@@H](n2cnc3c(NCc4ccco4)ncnc32)C1	nt	-2.2	nt	4	-1	5
O=C(Nc1nccs1)c1ccccc1[N+](=O)[O-]	6%	-5.1	11%[15.4 µM]	15	-5	-1
COc1ccc(S(=O)(=O)NCCc2c(C)nn(C)c2Oc2ccccc2)cc1	-19%	-1.8	0%	0	-3	2
Cc1cc(-c2onc(C)c2C(=O)Oc2ccc(Cl)cc2)no1	-3%	-2.5	-55%[inhibitor]	24	-4	20
Cc1noc(C)c1S(=O)(=O)N(C)C[C@H]1OCc2cnnn2CCCC(=O)N([C@H](C)CO)C[C@@H]1C	nt	-7.4	-17%	6	2	5
O=C(NCCc1ccccc1)/C(=N\O)c1ccccc1	10%	-1.7	-7%[15.4 µM]	7	-6	0
O=C(Nc1cccs1)Nc1c(F)cc(F)cc1Br	-9%	-2.4	-3%[15.4 µM]	-11	-8	-15
COc1ccc(N2CCN(CC(O)COc3ccc(C)c(C)c3)CC2)cc1 (stereo not drawn)	6%	-0.5	17%	?	-32	-28
CC(C)c1cccc(-c2csc(C(O)c3ccccc3)n2)c1 (stereo not drawn)	nt	5.0	nt	9	-5	12
CCOC(=O)N1C2=NC(C(=O)OC)=C(C(=O)OC)[C@@H]3N(Cc4ccccc4)c4ccccc4[C@]23C[C@H]1C(=O)OC	-7%	3.1	25%	-5	-1	-1
CCOC(=O)CSc1nc2c(c(=O)[nH]1)C(C)(CC)Cc1ccccc1-2 (stereo not drawn)	24%	1.3	-1%[15.4 µM]	-1	-5	3
CC1(C)CC(=O)C=C(c2ccc(COC(=O)C(c3ccccc3)c3ccccc3)cc2)C1=O	nt	-8.8	?	-13	-1	-16
COc1ccc(S(=O)(=O)N2CC(=O)Nc3ccccc32)cc1Cl	-2%	-3.6	3%[15.4 µM]	10	-1	4
O=C(COC(=O)C1CC1)NC(=O)c1ccccc1	11%	-0.1	16%	3	-8	1
CCN(Cc1ccccc1)Cc1c(C)[nH]c2c(C)c(C)ccc2c1=O	8%	-2.7	-5%	8	-25	-2
Cc1ccc(C(=O)OCC(=O)NCc2ccccc2)s1	nt	-2.4	-18%	3	-4	3
COC(=O)c1cc2sccc2n1CC(=O)N1CCCc2ccccc21	-19%	2.0	-23%	-6	-2	-22
CO[C@H]1/C=C/O[C@@]2(C)Oc3c(C)c(O)c4c(O)c(c(C=NN5CCN(C)CC5)c(O)c4c3C2=O)NC(=O)/C(C)=C\C=C\[C@H](C)[C@H](O)[C@@H](C)[C@@H](O)[C@@H](C)[C@H](OC(C)=O)[C@@H]1C	?	-5.1	nt	0	-2	8
COc1ccc(-c2cc(C(F)(F)F)nc(-n3cncn3)n2)cc1	10%	-1.3	-7%	-9	-1	-17
O=C(CN1CCN(C(=O)c2ccco2)CC1)Nc1cccc(S(=O)(=O)N2CCCC2)c1	-14%	5.5	-10%	-1	3	-12
